Screens: PubChem, several laboratories
PABP polyA inh = PABP poly(A) RNA binding inhibitors, primary screen, biochemical, fluorescence polarization, uHTS | Polyadenylate-binding protein 1 (Homo sapiens), P11940 | actives 1% (n = 290,000) | AID 2014, 2009 | inhibition, % at 35 µM;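 active = 50% or more with normal probe brightness, or confirmed in later tests; about a fifth of its hits are not listed in these tables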;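 also: calls also rest on retests at 20 µM and on dose response follow-up; controls were probe without protein and protein plus probe with vehicle; some compounds called inactive have numbers as strong as hits; many hits fall short of the cut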
Rce1 inhib = yeast Rce1p protease inhibitors, primary screen, biochemical, fluorescence, cell-free homogeneous; AID 2563, 2010; CAAX prenyl protease 2 (Saccharomyces cerevisiae (strain ATCC 204508 / S288c)), Q03530; calls only; actives 0.27% (n = 290,000); yeast membranes, quenched prenylated peptide cleavage fluorescence;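 active = fall in fluorescence gain of 50% or more versus controls, with final raw signal at or below 3038400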;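 also: plate controls were neutral control wells for no effect and wells lacking membranes for full effect; tested at 10 µM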
Target sequence (Q03530 whole entry, looked up): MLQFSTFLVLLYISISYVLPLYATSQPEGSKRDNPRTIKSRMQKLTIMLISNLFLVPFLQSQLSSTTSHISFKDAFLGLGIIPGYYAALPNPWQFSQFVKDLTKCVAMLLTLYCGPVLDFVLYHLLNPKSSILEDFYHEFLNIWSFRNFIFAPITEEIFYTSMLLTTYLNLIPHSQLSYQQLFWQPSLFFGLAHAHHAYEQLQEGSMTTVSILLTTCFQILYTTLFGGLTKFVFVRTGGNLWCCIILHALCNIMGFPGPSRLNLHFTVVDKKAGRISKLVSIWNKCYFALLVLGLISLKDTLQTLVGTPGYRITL
Env fusion inh = inhibitors of HIV-1 Env-driven cell-cell fusion, primary screen, HeLa-JRFL effector, CEM21 target cells, luciferase | actives 1.1% (n = 360,000) | inhibition, % at 12.3 µM | AID 651610, 2012;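 active = mean replicate inhibition score of at least 50 and every replicate individually at or above 50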;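 also: 0% = plate neutral controls and 100% = maraviroc near 300 nM; one replicate is shown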
MT1-MMP act inh = blockers of MT1-MMP proenzyme processing, primary screen, HT1080 RFP-PRO-GFP cells, GFP/RFP fluorescence; Matrix metalloproteinase-14 (Homo sapiens), P50281; GFP/RFP ratio fluorescence, overnight; percent of plate control window, DMSO zero; GFP/RFP ratio change, % at 20 µM; actives 0.061% (n = 360,000);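 active = GFP/RFP ratio change of at least 30% with cell ATP level not reduced by more than half and red fluorescence within 50% of control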; also: strong numbers were not always called active
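Assay system: HT1080 RFP-PRO-GFP cells. Benchmarks: DMSO vehicle wells and RFP-L50D-GFP reporter cell wells. Times: overnight cell settling, then overnight compound exposure, 37 °C, 5% CO2. Compound: 20 µM single dose, 1% DMSO. Read-out basis: GFP/RFP fluorescence ratio.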
CSC inhib = cancer stem cell viability inhibitors, primary screen, luminescence. cancer stem cell-like cells viability. inhibition, % at 7.5 µM. actives 1.1% (n = 300,000);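 active = mean at 75% or more and at least half the replicates too; tested in HMLE shEcad cells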;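 also: 0% = median of negative and 100% = median of positive control wells; the first replicate is given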
Yeast UUG start = modulators of yeast start codon fidelity, primary screen, whole organism, S. cerevisiae, single point, plate reader; S. cerevisiae UUG-firefly luciferase reporter, luminescence/redox ratio; AID 602363, 2012; activity score, % at 18.7 µM; actives 0.13% (n = 350,000);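 active = replicate mean at a twofold rise or more, about +100% in these data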;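 also: firefly luciferase made from a UUG start codon reports start codon fidelity; reporter light over untreated wells divided by growth signal over untreated wells; some hits fall short of that in this replicate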
eIF4H inh = human eIF4H binding inhibitors, primary screen, translation initiation inhibitor project, biochemical, uHTS, fluorescence polarization | inhibition, % at 35 µM | actives 0.94% (n = 290,000) | eIF4H fluorescence polarization binding assay;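 active = 50% or more with normal probe brightness, or confirmed in later tests; about a fifth of its hits are not listed in these tables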;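 also: calls also rest on retests at 20 µM and on dose response follow-up; 0% = protein and probe with vehicle and 100% = probe without protein; strong numbers were not always called active; many hits fall short of the cut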
eIF4H inh retest = recorded beside eIF4H inh, whose call it bears; inhibition, %; compound at 20 µM; confirmation average;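 mean of two retest wells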
PABP polyA inh retest = also measured in PABP polyA inh; calls as there; inhibition, %; compound at 20 µM; confirmation repeats;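 mean of two retest wells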
MT1-MMP act inh RFP = recorded beside MT1-MMP act inh, whose call it bears; RFP signal change, %; measured here: RFP expression control read;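 0 = vehicle wells; hits needed this value within 50% of zero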
* = called active by the depositor; i = inactive; . = no result given; & = joins results of further samples.

SMILES	PABP polyA inh	Rce1 inhib	Env fusion inh	MT1-MMP act inh	MT1-MMP act inh RFP	CSC inhib	Yeast UUG start	eIF4H inh	others
Cc1c(-c2ccc(Cl)cc2)oc(=O)c2c(N)n(-c3ccccc3)nc12	2	i	-85	-1	-7	41	-14	41
COc1ccc(C2Nc3cccc4cccc(c34)N2)cc1	31	i	-4	2	4	3	.	43
Cc1cc(Cl)ccc1C(=O)C1CCCN(C(=O)/C=C/c2cnn(C)c2)C1 (stereo unspecified)	-5	i	10	-2	0	6	.	-5
O=C(Nc1ccc(Cl)cn1)Nc1ccccc1Cl	3	i	-44	6	7	-12	1	2
CCCn1c(CCC(=O)O)ccc1-c1ccc(F)cc1	12	i	-25	-10	0	-3	1	8
Cc1nc2ccc(Br)cn2c(=O)c1Cl	10	i	-196	0	-2	-18	-7	2
O=S(=O)(c1ccc(SCc2ccc(Br)cc2)nc1)N1CCOCC1	.	.	19	-1	-10	.	-15	.
CCc1nn(CC(=O)NCCC2=CCCCC2)c(=O)c2cc3cc(F)ccc3n12	.	i	11	-3	0	10	2	.
CCOc1cccc2c1OC1(C)CC2NC(=O)N1c1cccc(C(=O)N2CCN(c3ccccn3)CC2)c1 (stereo unspecified)	8	i	-1	-4	-2	6	-14	-7
O=C(O)COc1ccc(/C=N/Nc2nc(Nc3ccccc3)nc(N3CCCCC3)n2)cc1	1	i	-5	1	0	-4	-17	-7
CCOC(=O)Cn1c(C)c(C#N)c2ccccc21	-15	i	-53	-3	1	.	-12	-4
CCn1nc(C(=O)Nc2ccc3nc(C)sc3c2)c2ccccc2c1=O	-4	i	16	1	1	7	1	-2
CCN1CCN(c2ncc3c(n2)CC(c2cc(OC)c(OC)c(OC)c2)CC3=O)CC1 (stereo unspecified)	-8	i	-55	-17	-18	40	.	-10
CCOC(=O)C1(C)CCCN(C(=O)c2cccnc2)C1 (stereo unspecified)	.	.	16	0	3	.	-12	.
COC(=O)c1ccccc1NC(=O)c1ccccc1OC	-2	i	.	-1	3	-4	-11	4
COc1ccc(C2CC(=O)Oc3c(C(CCN4CCOCC4)c4cc(OC)c(OC)c(OC)c4)c(OC)cc(OC)c32)cc1 (stereo unspecified)	-6	i	-3	-1	-7	8	-4	-3
COc1ccc(CNC(=O)CSc2nnc3c(n2)[nH]c2ccc(OC)cc23)cc1	-11	i	16	2	-2	-6	.	-15
Cc1ccc(NC(=S)/N=C(\N)Nc2nc(C)c3cc(C)c(C)cc3n2)cc1C	8	i	-4	-2	-19	0	-25	2
CCCn1cnc2cc(NCc3ccc(Br)cc3)ccc21	2	i	-32	5	-2	-6	-2	10
CCC(C)NC(=O)c1ccccc1NC(=O)C1COc2ccccc2O1 (stereo unspecified)	13	i	5	1	-1	-2	.	-6

Ordered by heavy-atom count (rising): some entries from above
SMILES	PABP polyA inh	Rce1 inhib	Env fusion inh	MT1-MMP act inh	MT1-MMP act inh RFP	CSC inhib	Yeast UUG start	eIF4H inh	others
Cc1nc2ccc(Br)cn2c(=O)c1Cl	10	i	-196	0	-2	-18	-7	2
CCOC(=O)Cn1c(C)c(C#N)c2ccccc21	-15	i	-53	-3	1	.	-12	-4
CCOC(=O)C1(C)CCCN(C(=O)c2cccnc2)C1 (stereo unspecified)	.	.	16	0	3	.	-12	.
COC(=O)c1ccccc1NC(=O)c1ccccc1OC	-2	i	.	-1	3	-4	-11	4
O=S(=O)(c1ccc(SCc2ccc(Br)cc2)nc1)N1CCOCC1	.	.	19	-1	-10	.	-15	.
Cc1c(-c2ccc(Cl)cc2)oc(=O)c2c(N)n(-c3ccccc3)nc12	2	i	-85	-1	-7	41	-14	41
CCn1nc(C(=O)Nc2ccc3nc(C)sc3c2)c2ccccc2c1=O	-4	i	16	1	1	7	1	-2
Cc1ccc(NC(=S)/N=C(\N)Nc2nc(C)c3cc(C)c(C)cc3n2)cc1C	8	i	-4	-2	-19	0	-25	2
COc1ccc(CNC(=O)CSc2nnc3c(n2)[nH]c2ccc(OC)cc23)cc1	-11	i	16	2	-2	-6	.	-15
CCN1CCN(c2ncc3c(n2)CC(c2cc(OC)c(OC)c(OC)c2)CC3=O)CC1 (stereo unspecified)	-8	i	-55	-17	-18	40	.	-10
O=C(O)COc1ccc(/C=N/Nc2nc(Nc3ccccc3)nc(N3CCCCC3)n2)cc1	1	i	-5	1	0	-4	-17	-7
CCOc1cccc2c1OC1(C)CC2NC(=O)N1c1cccc(C(=O)N2CCN(c3ccccn3)CC2)c1 (stereo unspecified)	8	i	-1	-4	-2	6	-14	-7
COc1ccc(C2CC(=O)Oc3c(C(CCN4CCOCC4)c4cc(OC)c(OC)c(OC)c4)c(OC)cc(OC)c32)cc1 (stereo unspecified)	-6	i	-3	-1	-7	8	-4	-3

Following part
SMILES	PABP polyA inh	Rce1 inhib	Env fusion inh	MT1-MMP act inh	MT1-MMP act inh RFP	CSC inhib	Yeast UUG start	eIF4H inh	others
CC(=O)Nc1ccc(OCc2nnc(-c3ccc(Cl)cc3)o2)cc1	-3	i	-23	16	3	31	.	3
Cn1nnc2cc(C(=O)N3CCCCCC3)ccc21	-5	i	-52	2	8	-18	-9	3
Cc1onc(-c2ccccc2Cl)c1C(=O)NC(=S)NCCc1ccccc1	15	i	-23	-3	-4	22	-14	-4
C/C(=N\Nc1cc(-c2ccccc2)nc(-c2ccc(Br)cc2)n1)c1cccc(N)c1	.	i	.	-7	-6	46	.	.
COc1cccc(CNC(=O)C2(C)Oc3ccccc3NC2=O)c1 (stereo unspecified)	15	i	9	-11	-9	-7	-3	3
Cc1ccc2nc(C)cc(C(=O)N3CCCC(N4CCN(c5ccccc5C)CC4)C3)c2c1 (stereo unspecified)	19	i	-3	-1	1	-3	2	20
CN1CCN(c2ccc(S(=O)(=O)N3CCOCC3)cc2NC(=O)CCc2ccccc2)CC1	3	i	6	-1	3	-8	.	10
COc1cc(OC)cc(C(=O)NNC(=O)NC2CCCCC2)c1	-17	i	.	0	5	-4	-20	-4
CC(=O)c1ccccc1NC(=O)c1ccc(N2CCCC2=O)cc1	.	i	-15	-6	0	-4	-5	.
COc1ccc(N2CCN(C(=O)c3ccc4c(=O)n5c(nc4c3)CCCCC5)CC2)cc1	-2	i	.	1	2	66	-4	-10
O=C(NCC1CCN(c2ccc(S(=O)(=O)N3CCOCC3)cc2)CC1)c1ccc(Cl)cc1	5	i	.	-4	-19	0	13	-2
O=C(NNC(=O)c1oc2ccccc2c1-n1cccc1)c1ccco1	-2	i	-9	0	-1	4	.	0
CCc1nnc(NC(=O)C2CSC3(C)CCC(=O)N23)s1 (stereo unspecified)	.	i	4	0	0	-15	-16	.
O=C(O)c1ccc(CNC(=O)C2CCCN2C(=O)OCc2ccccc2)cc1 (stereo unspecified)	7	i	13	-3	2	-1	-7	-8
COc1ccc(C2C(C(C)=O)=C(O)C(=O)N2c2cccnc2)c(OC)c1 (stereo unspecified)	2	i	-31	1	-2	-7	-9	-4
COc1ccc(NC(=O)c2cccc(S(=O)(=O)N(C)c3ccccc3)c2)cn1	-13	i	-11	-1	-8	0	-6	0
CN(CC(=O)Nc1ccc(F)c(F)c1F)C(=O)C1CCN(C(=O)Nc2ccccc2)CC1	.	i	.	1	4	-10	-35	.
O=C(Nc1ccncc1)c1cc2ccccc2o1	0	.	.	-2	-6	-7	-9	3
COc1cccc(COC(=O)CSCC(=O)Nc2cccc(C)c2)c1OC	.	i	2	-1	0	-8	12	.
c1cc(C2OCCO2)cs1	.	.	-4	-4	1	.	-1	.

The list goes on, overlapping the part above by two compounds.
SMILES	PABP polyA inh	Rce1 inhib	Env fusion inh	MT1-MMP act inh	MT1-MMP act inh RFP	CSC inhib	Yeast UUG start	eIF4H inh	others
COc1cccc(COC(=O)CSCC(=O)Nc2cccc(C)c2)c1OC	.	i	2	-1	0	-8	12	.
c1cc(C2OCCO2)cs1	.	.	-4	-4	1	.	-1	.
C[C@@H]1CN([C@H](C)CO)C(=O)CCCn2cc(nn2)CO[C@H]1CN(C)S(=O)(=O)c1ccc(Oc2ccccc2)cc1	.	.	0	5	2	.	-14&9	.
O=C(c1ccccc1)N1CCC(c2nc(-c3ccc(S(=O)(=O)N4CCOCC4)cc3)no2)CC1	7	i	.	-4	-11	-9	-23	0
CC(C)(CNC(=O)CCC1CCCC1)CNC(=O)CCC1CCCC1	2	i	11	-1	-2	-2	-1	-7
O=C(N/N=C/c1cccnc1)c1ccccc1Cl	2	i	-1	0	-1	3	-22	-2
O=C(c1ccccc1Br)N1CCC(c2nc3ccccc3s2)CC1	5	i	8	1	-3	-4	.	-4
Cc1ccc(S(=O)(=O)C2CCCCC2=O)cc1 (stereo unspecified)	4	i	10	-3	2	-16	.	-3
O=C(c1cc2nc(-c3cccs3)cc(C(F)(F)F)n2n1)N1CCCc2ccccc21	-5	i	14	-3	-11	.	-7	0
CSc1nc2ccc(S(=O)(=O)N3CCc4ccccc43)cc2s1	-13	i	.	-6	-15	3	-14	8
O=C(Cc1ccccc1[N+](=O)[O-])N1CCN(S(=O)(=O)c2ccccc2)CC1	-8	i	1	-5	3	-3	-4	-16
O=C(O)c1cccc(-n2nc(-c3ccc(Cl)c([N+](=O)[O-])c3)c3ccccc3c2=O)c1	8	i	6	-3	0	.	1	-2
CNC(=O)c1cc2c(=O)n3cc(C)ccc3nc2n(C(C)C)c1=N	-12	i	.	-6	1	-5	1	8
CCOC(=O)c1ccn(-c2nc(-c3ccco3)cc(C(F)(F)F)n2)n1	-4	i	-15	-3	0	-10	0	0
NC(=O)c1ccc(C(=O)N/N=C/c2cccc(Oc3ccccc3)c2)cc1	-5	i	8	5	2	-5	-13	-7
Cc1ccc(N2CN(CCC3=CCCCC3)CNC2=S)cc1	-16	i	11	2	-1	-8	-24	3
O=C(Cn1nnc(-c2ccccc2Cl)n1)N1CCCCC1	-5	i	-14	-3	-2	-23	-4	-10
COc1ccc(/C(CC2OC(=O)c3ccccc32)=N\NC(N)=O)cc1 (stereo unspecified)	1	i	-4	-1	3	-10	.	-5
CNC(=S)Nc1ccccc1-c1ccccc1	-4	i	-8	0	0	3	.	-4
C=CCOC(=O)C1=C(C)OC(N)=C(C#N)C1c1ccccc1F (stereo unspecified)	0	i	.	-4	2	3	-10	-10
COc1ccc(OC)c(NS(=O)(=O)c2ccc(NC(=O)c3ccc(NS(C)(=O)=O)cc3)cc2)c1	15	i	.	-4	-23	.	.	12
O=C1C2C3CC(C(Br)C3Br)C2C(=O)N1CC1CCCO1 (stereo unspecified)	-8	i	-31	5	6	.	3	-18
CCCCNC1CCS(=O)(=O)C1 (stereo unspecified)	-7	i	-28	1	2	-1	-19	-1
COc1cccc(-c2cc(C(=O)NCCc3ccccc3)no2)c1	-7	i	-22	5	4	-5	-21	-5
CCN(CC)S(=O)(=O)c1ccc(N2CCN(C)CC2)c(NC(=O)c2cc(=O)c3ccccc3o2)c1	11	i	2	0	-1	14	-11	5
O=C(NCc1ccco1)c1cc2ccccc2c(=O)o1	16	i	.	4	3	-6	.	20
O=C(Oc1ccc(-n2cnnn2)cc1)c1ccccc1	-11	i	-6	0	2	7	.	71*	eIF4H inh retest=66*;PABP polyA inh retest=31
